Vif TR-FRET: inhibitors of Vif binding to APOBEC3G peptide, primary screen, biochemical, TR-FRET, GST-Vif 1-94, biotin-A3G peptide, dose response retest (AID 1117319); 0.57% of 260,000 active; TR-FRET GST-Vif / biotin-A3G peptide binding; higher % means a stronger effect; test concentration not given here; strong numbers were not always called active; inhibition, %, or IC50 in µM where a hit was titrated;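 active means above the screen mean plus three standard deviations and confirmed in dose response; inconclusive means results disagree or hit not tested in dose response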;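 further: Vif residues 1-94 fused to GST binding biotinylated APOBEC3G peptide 110-148; 0% = full assay without inhibitor and 100% = GST in place of GST-Vif; retest series ran down from 100 µM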
FGF22 binding: binders of human FGF22 protein, primary screen, FGF22 synaptogenesis inhibitor project, biophysical, thermal shift, single point. Fibroblast growth factor 22 (Homo sapiens), Q9HCT0. recombinant FGF22 thermal shift, SYPRO orange fluorescence; percent of sucrose octasulfate shift, DMSO zero. calls only at 9.99 µM. 1.5% of 340,000 active;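 active means melting point raised past a set limit in the mean and every replicate; inconclusive means no clear call; three in four hits are not shown here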
Target sequence (Q9HCT0 whole entry, looked up): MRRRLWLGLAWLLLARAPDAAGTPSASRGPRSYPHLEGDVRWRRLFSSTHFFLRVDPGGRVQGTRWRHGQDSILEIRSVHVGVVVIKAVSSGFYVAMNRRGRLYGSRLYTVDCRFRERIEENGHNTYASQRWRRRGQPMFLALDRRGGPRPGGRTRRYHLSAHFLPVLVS
ALR inh: inhibitors of human ALR sulfhydryl oxidase, primary screen, biochemical, H2O2 detection, HRP-luminol luminescence, single point. FAD-linked sulfhydryl oxidase ALR (Homo sapiens), P55789. 3.8% of 290,000 active. purified ALR, DTT oxidation. inhibition, % (test concentration not listed);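 active means mean and each replicate at 75% or more; inconclusive means only one of the two met; inactive means neither met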;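 further: stock transfer was 7.5 nL into about 7.5 µL; 0% = neutral wells and 100% = wells with inactivated enzyme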
Target sequence (P55789 whole entry, looked up): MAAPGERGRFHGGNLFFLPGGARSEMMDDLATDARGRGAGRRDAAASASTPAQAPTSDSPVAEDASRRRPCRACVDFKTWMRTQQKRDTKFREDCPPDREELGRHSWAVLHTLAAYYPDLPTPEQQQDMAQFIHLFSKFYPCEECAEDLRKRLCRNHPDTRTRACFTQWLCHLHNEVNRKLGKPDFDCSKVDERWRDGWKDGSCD
Ecoli rRNA inh: reduced GFP signal of wild-type E. coli, primary screen, bacterial rRNA inhibitor project, GFP/RFP fluorescence, OD600, single point; E. coli WT GFP vs humanized-ribosome RFP mutants, 24 h; active compounds read low; DMSO median 0, no signal -100; GFP signal change (wild-type ribosome), % (test concentration not listed); 1.6% of 350,000 active; AID 720706, 2013;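 active means significant combined selectivity score with lowered wild-type GFP, culture density cut under 30%, mutant RFP and density less affected; inactive means any of these conditions unmet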; further: one replicate is shown; some compounds called inactive have numbers as strong as hits
E coli growth: E. coli growth inhibition, primary screen, OD600. 0.21% of 330,000 active. OD600 absorbance (test concentration not listed). AID 1053175, 2014. Escherichia coli growth, 23 h; active compounds read low;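 active means OD600 absorbance below the run mean of sample wells minus 3.6 SD, in any replicate, cut at about 0.56 in these data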;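 further: stock transfer was 300 nL into about 60 µL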
HNF4A DNA FP: change in binding of human HNF4A to DNA, primary screen, biochemical, fluorescence polarization, FITC-DNA | Hepatocyte nuclear factor 4-alpha (Homo sapiens), P41235 | 1 h | activity change, % at 10 µM | 0.3% of 360,000 active | AID 1224865, 2016; in the data active means activity change above about 30%, passing the limit was not always enough;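 further: controls were the assay level and a saturating level of protein; the project sought stronger binding though the title names inhibitors; some compounds called inactive have numbers as strong as hits; positive values seem to mean higher polarization but the record does not say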
Target sequence (P41235 whole entry, looked up): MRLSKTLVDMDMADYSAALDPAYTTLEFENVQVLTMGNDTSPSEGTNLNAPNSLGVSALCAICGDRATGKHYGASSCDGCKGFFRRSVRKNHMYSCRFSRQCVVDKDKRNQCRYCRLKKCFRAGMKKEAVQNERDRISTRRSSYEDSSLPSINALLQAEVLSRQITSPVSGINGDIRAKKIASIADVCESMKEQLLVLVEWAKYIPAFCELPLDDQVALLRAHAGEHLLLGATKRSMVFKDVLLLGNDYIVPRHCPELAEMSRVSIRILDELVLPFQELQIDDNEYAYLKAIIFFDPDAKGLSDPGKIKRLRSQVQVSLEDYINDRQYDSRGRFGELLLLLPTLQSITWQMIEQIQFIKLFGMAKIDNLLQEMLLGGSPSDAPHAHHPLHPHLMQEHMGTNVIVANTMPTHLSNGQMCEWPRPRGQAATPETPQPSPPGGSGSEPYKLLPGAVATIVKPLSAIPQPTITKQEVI
AF4-AF9 inh: inhibitors of AF4 peptide binding to AF9, primary screen, biochemical, AlphaScreen, biotin-AF4 peptide, FLAG-AF9, single point | inhibition, % at 10 µM | 0.47% of 350,000 active | AID 651704, 2012;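 active means every replicate reaching a set inhibition limit, whatever the replicate mean, cut at about 25% in these data; inconclusive means mean inhibition reaches that limit but some replicates miss it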;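 further: 0% = plate neutral control median and 100% = total signal loss; the record names both 10 and 1 µM as test concentration; the first replicate is given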
Ecoli rRNA inh OD600: recorded beside Ecoli rRNA inh, whose call it bears; OD600 change, %; measured here: OD600 growth;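 optical density of the mix in the first replicate; 0 = DMSO median and -100 = no signal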
Ecoli rRNA inh RFP: recorded beside Ecoli rRNA inh, whose call it bears; RFP signal change, %; measured here: RFP humanized mutant strains;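 first replicate; 0 = DMSO median and -100 = no signal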
Numbers without * were called inactive; i = inactive; ? = inconclusive; . = no result given; & = joins results of further samples. This is a subset; count on the stated rates, not on these rows.

SMILES	Vif TR-FRET	FGF22 binding	ALR inh	Ecoli rRNA inh	Ecoli rRNA inh OD600	Ecoli rRNA inh RFP	E coli growth	HNF4A DNA FP	AF4-AF9 inh
O=C(NCc1ccc(Cl)cc1)NCc1ccc(Cl)cc1	7%	i	6	-2	-1	-4.6	0.72	2.5	-15
O=S(=O)(NCc1ccccn1)c1ccccc1	-3%	.	-12	2	-8	-3.3	0.7	2.3	.
C[C@@H]1CN([C@@H](C)CO)C(=O)c2cc(C#CC(C)(C)O)cnc2O[C@@H]1CN(C)C(=O)C1CCC1	.	i	.	4	2	-5.4	.	.	-10
CC1(C(=O)NS(=O)(=O)c2cccs2)CCN1C(=O)C1CCCCC1 (configuration not stated)	.	i	.	29	16	1.0	.	0.1	2.1
O=C(C[C@H]1C[C@H]2c3cc(NC(=O)c4cccnc4)ccc3O[C@H]2[C@@H](CO)O1)NC1CCCCC1	.	i	.	11	11	0.5	.	.	-2.2
O=c1oc2ccccc2nc1/C=C(O)/C=C\c1ccccc1	9%	.	58	.	.	.	.	5.9	.
Cc1ccc(S(=O)(=O)N2CCN(S(=O)(=O)c3ccc(C)cc3)C2c2ccccc2)cc1	-4%	.	-15	.	.	.	0.75	1.6	.
COc1cccc(C(=O)Nc2ccc3c(c2)C(=O)N(C)[C@H]2CC[C@H](CC(=O)Nc4ccc5c(c4)CCCC5)O[C@@H]2CO3)c1	.	i	.	-4	-5	-0.3	.	.	-3.5
COc1ccc2c3c([nH]c2c1)[C@@H](CO)N(C(C)=O)CC31CN(C(=O)c2ccc3c(c2)OCO3)C1	.	i	.	2	8	-0.3	.	.	18
COc1ccccc1CCNS(=O)(=O)c1ccc(C(=O)O)n1C	-3%	i	-1	5	12	0.4	0.65	0.5	.
CC1(C)Cc2ccccc2-c2nnc(-c3cccc(O)c3)n21	?	.	0	.	.	.	0.67	0.2	.
CN(C)S(=O)(=O)c1cccc(NC(=O)Cc2ccc(Cl)cc2)c1	4%	.	-11	.	.	.	0.65	-4.0	.
CN1OC(Cn2cc(C#N)c(=O)n(C)c2=O)CC1c1ccccc1 (configuration not stated)	?	i	-6	18	12	1.2	0.69	0.0	-2.6
CC1(C)COC(=S)N1CCC#N	-12%	i	.	6	9	-0.1	.	4.1	-2.9
c1coc(-c2nc3nc4ccccc4nc3n2CC2CCCO2)c1 (configuration not stated)	15%	.	21	.	.	.	0.64	7.7	.
COC(=O)c1ccc(-n2nnnc2SCC(=O)NCc2cccc(C(=O)O)c2)cc1	1%	.	-9	.	.	.	0.66	-2.1	.
Cn1c(=O)cc(N2CCc3ccccc32)[nH]c1=O	?	i	.	-1	2	3.0	0.79	-2.1	1.7
Cc1ccc(C(=O)CSc2ccccc2C(=O)O)cc1	.	i	.	7	7	3.7	0.7	1.7	-3.6
CCCNC(=O)N(C)C[C@H]1Oc2cc(C#CC(C)(C)O)ccc2S(=O)(=O)N([C@H](C)CO)C[C@@H]1C	.	i	.	5	11	-0.6	.	.	-2.2
COc1cccc(C(=O)C(=O)c2cccc(OC)c2OC)c1OC	0%	i	.	-8	-31	-0.3	0.66	0.8	1.9

Some of these compounds in order of the AF4-AF9 inh value, highest first.
molecule	Vif TR-FRET	ALR inh	Ecoli rRNA inh	Ecoli rRNA inh OD600	Ecoli rRNA inh RFP	AF4-AF9 inh
Cn1c(=O)cc(N2CCc3ccccc32)[nH]c1=O	?	.	-1	2	3.0	1.7
CN1OC(Cn2cc(C#N)c(=O)n(C)c2=O)CC1c1ccccc1 (configuration not stated)	?	-6	18	12	1.2	-2.6
Cc1ccc(C(=O)CSc2ccccc2C(=O)O)cc1	.	.	7	7	3.7	-3.6

(list continues)
SMILES	Vif TR-FRET	FGF22 binding	ALR inh	Ecoli rRNA inh	Ecoli rRNA inh OD600	Ecoli rRNA inh RFP	E coli growth	HNF4A DNA FP	AF4-AF9 inh
COc1ccc(-c2nn(-c3ccccc3)cc2CNC[C@H]2O[C@@H](n3cnc4c(=O)[nH]c(N)nc43)[C@H](O)[C@@H]2O)cc1	.	i	.	-5	-5	19	.	-0.5	2.3
CCC(C)(C)NC(=O)Cc1ccc(F)cc1	7%	i	-3	1	7	1.4	0.68	-1.5	-1.6
CN(C)CC(=O)Nc1ccc2c(c1)[C@@H]1C[C@@H](CC(=O)NCc3cccc(F)c3)O[C@@H](CO)[C@@H]1O2	.	i	.	1	3	0.8	.	.	8.7
Cc1ccc(SCC2(O)CCN(C(=O)c3ccc(Cl)cc3)CC2)cc1	5%	.	2	.	.	.	0.79	-1.2	.
Cc1ccc(-c2ccc3c(c2)O[C@H](CN(C)C(=O)C2CCC2)[C@@H](C)CN([C@H](C)CO)S3(=O)=O)cc1	.	i	.	-8	-13	6.6	.	.	3.4
Oc1cccc2oc(=S)[nH]c12	1%	i	.	13	7	-0.9	0.65	-4.7	-2.4
COc1ccccc1-c1nc2cc(Cl)ccc2c(=O)n1O	-1%	i	4	-5	-9	-0.2	0.71	1.8	-0.7
C=CCN(c1ccc(C(=O)NCCN2CCOCC2)cc1)S(C)(=O)=O	.	i	.	19	14	-0.4	0.73	2.0	0.2
C#CC(C)(C)NC(=O)c1cnc(-c2ccccc2)nc1-c1ccccc1	-1%	i	.	-6	-27	-1.1	0.68	-2.7	-2.7
O=C(CCCN1C(=O)c2ccccc2C1=O)N1CCc2ccccc2C1	-4%	.	1	.	.	.	0.74	-1.1	.
Cc1ccc(C)c(S(=O)(=O)Nc2ccc(O)cc2)c1	0%	.	71	.	.	.	0.69	2.5	.
N#C/C(=C\c1ccccc1[N+](=O)[O-])C(=O)Nc1ccc(S(N)(=O)=O)cc1	-7%	i	9	0	-5	-2.7	0.64	2.1	-20
CN1C(=O)c2cc(NC(=O)C3CCOCC3)ccc2OC[C@@H]2O[C@@H](CC(=O)NCC3CCCCC3)CC[C@@H]21	.	i	.	1	-2	0.4	.	.	-2.0
O=C1OC(c2ccc(F)cc2)=N/C1=C\C=C/c1ccccc1	-5%	i	7	-7	-16	0.4	0.67	0.7	?
O=C1CCCC2=C1C(c1cccs1)Nc1ccccc1N2 (configuration not stated)	24%	.	.	.	.	.	0.67	0.1	.
O=C(COC(=O)c1n[nH]c2ccccc12)Nc1cccc(S(=O)(=O)N2CCOCC2)c1	-2%	i	.	-25*	-15*	2.8*	0.65	-2.4	-6.1
Cc1nc(N2CCOCC2)[nH]c(=O)c1[N+](=O)[O-]	0%	i	1	5	-1	0.8	0.69	5.7	2.8
O=C(Nc1cccc([N+](=O)[O-])c1)Nc1ccc2c(c1)OCCO2	-2%	i	-11	10	12	2.1	0.69	2.0	-8.0
O=C(Nc1ccccc1)N1CCCCN2[C@@H](CO)[C@@H](c3ccc(C#Cc4ccccn4)cc3)[C@@H]2C1	.	i	.	-2	16	2.3	.	.	6.9
C[C@@H]1CN([C@@H](C)CO)C(=O)Cc2cc(NS(=O)(=O)c3ccccc3)ccc2O[C@@H]1CN(C)C(=O)Nc1cccc2ccccc12	.	i	.	-9	-4	3.4	.	.	0.2
CNC[C@@H]1Oc2ccc(NS(=O)(=O)c3c(C)noc3C)cc2C(=O)N([C@H](C)CO)C[C@H]1C	.	i	.	-1	3	-2.2	.	.	-6.0
CCCC#Cc1ccc([C@@H]2[C@@H](C#N)N(C(=O)C3CCC3)[C@@H]2CO)cc1	.	i	.	1	0	0.5	.	.	-0.8
CC(C)NC(=O)N(C)C[C@@H]1OCCCC[C@H](C)Oc2ccc(NC(=O)C3CCCCC3)cc2C(=O)N([C@@H](C)CO)C[C@@H]1C	.	i	.	1	6	0.1	.	.	-2.3
COc1ccc(-c2csc3ncnc(N4CCN(S(=O)(=O)c5cccc(Br)c5)CC4)c23)cc1	-53%	i	-1	0	7	0.1	0.78	9.0	-7.2
Cc1ccc(NC(=O)Cn2nnc(C(=O)NCc3cccs3)c2N)cc1	6%	.	-5	.	.	.	0.64	1.1	.
Cc1ccc(-c2nn(C)c(=O)c3ccccc23)cc1CO	11%	.	-2	.	.	.	0.69	-1.0	.
Cc1csc(NC(=O)c2ccc(C)c(S(=O)(=O)N3CCCCC3)c2)n1	3%	.	-9	.	.	.	0.69	-0.3	.
O=C(NCC1CC1)Nc1ccc(Cl)cc1	-7%	i	-1	-17	-38	1.3	0.58	4.7	-0.1
COc1ccc(N2C(=S)NC3N2C(=S)NC3(C)c2ccccc2)cc1 (configuration not stated)	31%	i	98*	-4	4	-4.4	0.72	1.9	2.6
COC(=O)C(NC(=O)c1ccco1)(Nc1nc(C2CC2)cs1)C(F)(F)F (configuration not stated)	-7%	.	.	.	.	.	0.66	1.6	.
CCOC(=O)c1cnc2c(ccc3ccccc32)c1Cl	.	i	-5	16	16	4.2	0.72	-4.0	-3.6
COc1cccc(CN2[C@@H](CO)[C@@H](c3ccccc3)C23CN(C(=O)C2CCCCC2)C3)c1	.	i	.	-11	-34	5.5	.	.	5.1
CC(=O)N[C@H]1C=C[C@H](CC(=O)NCC2CCCCC2)O[C@@H]1CO	.	i	.	-2	6	4.4	.	.	-0.5
CCC(=O)N1c2ccc(S(=O)(=O)N3CCN(c4ccc([N+](=O)[O-])cc4)CC3)cc2CC1C (configuration not stated)	.	i	-4	5	12	1.3	0.71	0.5	2.9
Cc1nn(C(C)C(=O)Nc2sc3c(c2C#N)CCCC3)c(C)c1[N+](=O)[O-] (configuration not stated)	-1%	.	0	.	.	.	0.7	2.8	.
CC(=O)c1c(C)[nH]c(C(=O)Nc2ccc(Cl)c(S(=O)(=O)N(C)C)c2)c1C	7%	i	-9	-33	-52	11	0.64	1.3	6.3
O=C(CN1CCC(O)(c2cccc(C(F)(F)F)c2)CC1)NCCc1ccccc1	2%	i	-3	-37	-39	-6.8	.	-4.5	-1.1
CCCCNC(=S)N/N=C/C1=CCC2CC1C2(C)C (configuration not stated)	2%	.	-1	.	.	.	.	-1.6	.
Fc1ccc(/C=N/N2CCOCC2)c(F)c1	.	i	1	8	12	-4.4	.	-0.5	-6.5
CCCn1c2ccccc2c2nnc(SC(CC)C(=O)Nc3sc4c(c3C#N)CCCC4)nc21 (configuration not stated)	-3%	.	-24	.	.	.	0.75	-2.4	.
COc1ccc(OC2CCN(S(=O)(=O)c3ccccc3)CC2)cc1	-6%	i	3	-6	-18	2.6	0.67	0.6	6.9
Cc1ccc(O)c(NC(=O)c2onc(C)c2Cl)c1	.	i	15	-4	1	-1.8	0.57	0.3	-2.7
CC(C)CCn1nnnc1CN1CCN(c2ccccc2)CC1	-8%	i	45	-12	-4	-4.0	0.7	-0.6	-0.8
COC(=O)c1c(NC(=O)COC(=O)c2ccccn2)sc(C)c1C	-4%	i	0	1	2	0.4	0.6	-0.8	-1.2
CC(C)[C@H]1CC[C@@H](C)C(C(=O)c2ccccc2)C1=O (some centres not stated)	25%	i	2	3	15	-2.3	0.71	-0.8	58*
COc1ccc(CN(CC(=O)NCC2CCCO2)C(=O)CNS(=O)(=O)c2ccc(C)cc2)cc1 (configuration not stated)	13%&-7%	.	16	.	.	.	0.77	3.3	.

Bioassay records as filed in PubChem.
